HIV Env fusion – inhibitors of HIV-1 Env-driven cell-cell fusion, primary screen, HeLa-JRFL effector, CEM21 target cells, luciferase | inhibition, % at 12.3 µM | actives 1.1% (n = 360,000);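 active = mean replicate inhibition score of at least 50 and every replicate individually at or above 50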;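 note: 0% = plate neutral controls and 100% = maraviroc near 300 nM; one replicate is shown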
MT1-MMP act inh – blockers of MT1-MMP proenzyme processing, primary screen, HT1080 RFP-PRO-GFP cells, GFP/RFP fluorescence; GFP/RFP ratio fluorescence, overnight; percent of plate control window, DMSO zero; GFP/RFP ratio change, % at 20 µM; actives 0.061% (n = 360,000);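 active = GFP/RFP ratio change of at least 30% with cell ATP level not reduced by more than half and red fluorescence within 50% of control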; note: strong numbers were not always called active
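Assay system: RFP-PRO-GFP reporter HT1080 cells; read-out basis: GFP/RFP fluorescence ratio; benchmarks: DMSO wells and RFP-L50D-GFP cells; doses: 20 µM single dose, 1% DMSO; schedule: overnight cell settling, then overnight compound exposure, 37 °C, 5% CO2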
CSC inhib – cancer stem cell viability inhibitors, primary screen, luminescence; cancer stem cell-like cells viability; actives 1.1% (n = 300,000); AID 2717, 2010; inhibition, % at 7.5 µM;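 active = mean at 75% or more and at least half the replicates too; tested in HMLE shEcad cells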;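 note: 0% = median of negative and 100% = median of positive control wells; the first replicate is given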
PABP polyA inh – PABP poly(A) RNA binding inhibitors, primary screen, biochemical, fluorescence polarization, uHTS. inhibition, % at 35 µM. actives 1% (n = 290,000). Polyadenylate-binding protein 1 (Homo sapiens), P11940;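 active = 50% or more with normal probe brightness, or confirmed in later tests; about a fifth of its hits are not listed in these tables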;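 note: calls also rest on retests at 20 µM and on dose response follow-up; controls were probe without protein and protein plus probe with vehicle; some compounds called inactive have numbers as strong as hits; many hits fall short of the cut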
Rce1 inhib – yeast Rce1p protease inhibitors, primary screen, biochemical, fluorescence, cell-free homogeneous; CAAX prenyl protease 2 (Saccharomyces cerevisiae (strain ATCC 204508 / S288c)), Q03530; yeast membranes, quenched prenylated peptide cleavage fluorescence; calls only; actives 0.27% (n = 290,000); AID 2563, 2010;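 active = fall in fluorescence gain of 50% or more versus controls, with final raw signal at or below 3038400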;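 note: plate controls were neutral control wells for no effect and wells lacking membranes for full effect; tested at 10 µM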
Target sequence (Q03530 whole entry, looked up): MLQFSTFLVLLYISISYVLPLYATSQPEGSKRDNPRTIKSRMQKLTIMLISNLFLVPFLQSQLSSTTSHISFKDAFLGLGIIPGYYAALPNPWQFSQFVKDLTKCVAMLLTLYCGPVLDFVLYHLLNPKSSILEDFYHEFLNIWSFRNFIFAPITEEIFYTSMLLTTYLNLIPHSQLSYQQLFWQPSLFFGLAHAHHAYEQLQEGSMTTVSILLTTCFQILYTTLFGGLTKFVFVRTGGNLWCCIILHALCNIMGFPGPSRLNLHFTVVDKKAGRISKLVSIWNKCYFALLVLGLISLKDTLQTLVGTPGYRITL
UUG fidelity – modulators of yeast start codon fidelity, primary screen, whole organism, S. cerevisiae, single point, plate reader. S. cerevisiae UUG-firefly luciferase reporter, luminescence/redox ratio. AID 602363, 2012. actives 0.13% (n = 350,000). activity score, % at 18.7 µM;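 active = replicate mean at a twofold rise or more, about +100% in these data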;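 note: firefly luciferase made from a UUG start codon reports start codon fidelity; reporter light over untreated wells divided by growth signal over untreated wells; some hits fall short of that in this replicate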
eIF4H FP inh – human eIF4H binding inhibitors, primary screen, translation initiation inhibitor project, biochemical, uHTS, fluorescence polarization. inhibition, % at 35 µM. Eukaryotic translation initiation factor 4H (Homo sapiens), Q15056. AID 2012, 2009. eIF4H fluorescence polarization binding assay. actives 0.94% (n = 290,000);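 active = 50% or more with normal probe brightness, or confirmed in later tests; about a fifth of its hits are not listed in these tables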;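 note: calls also rest on retests at 20 µM and on dose response follow-up; 0% = protein and probe with vehicle and 100% = probe without protein; strong numbers were not always called active; many hits fall short of the cut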
eIF4H FP inh retest – recorded beside eIF4H FP inh, whose call it bears; inhibition, %; compound at 20 µM; confirmation average;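 mean of two retest wells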
PABP polyA inh retest – second read-out of PABP polyA inh, no call of its own (marks repeat the call); inhibition, %; compound at 20 µM; confirmation repeats;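 mean of two retest wells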
MT1-MMP act inh RFP – recorded beside MT1-MMP act inh, whose call it bears; RFP signal change, %; measured here: RFP expression control read;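 0 = vehicle wells; hits needed this value within 50% of zero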
Starred values were filed as active, the others as inactive; i = inactive; . = not tested or not shown. An excerpt (hit frequency here may not be typical).

SMILES	HIV Env fusion	MT1-MMP act inh	MT1-MMP act inh RFP	CSC inhib	PABP polyA inh	Rce1 inhib	UUG fidelity	eIF4H FP inh	others
COc1ccccc1NC1=NC(c2ccc(Cl)cc2)N=C(N)N1 (stereo unspecified)	-389	-3	-8	61	4	i	-22	-7
Cc1ccc(NC(=O)c2ccc(NS(=O)(=O)c3ccc4[nH]c(=O)[nH]c4c3)cc2)nc1	-6	2	3	-18	.	i	.	.
CCN(C(=O)CSc1n[nH]c(N)n1)C1CCCCC1	6	-7	-5	-20	.	.	-9	.
CC(C)(C)C(=O)CSc1ncccn1	-12	6	3	7	-7	.	-10	-10
COC(=O)C(CC(C)C)Oc1ccc2c(C)cc(=O)oc2c1 (stereo unspecified)	-7	-4	0	5	-10	i	-5	2
Cc1cc(N2CCN(C)CC2)nc2ccc(NC(=S)NCc3cccs3)cc12	8	-3	-10	48	3	i	-31	-4
CC(C)(C)c1cc(/C=N/NC(=O)Cc2nc3ccccc3[nH]2)cc(C(C)(C)C)c1O	.	4	6	-20	-6	i	7	10
CC(OC(=O)CC1CC2CCC1C2)C(=O)Nc1ccc(N2CCOCC2)cc1 (stereo unspecified)	-13	4	0	11	4	i	-5	3
COC(=O)c1ccccc1C(=O)c1ccc2c(c1)NC(=O)CO2	-65	-2	-1	-16	33	i	-16	10
Cc1cc(C(=O)NNC(=O)CN2C(=O)NC3(CCCCC3)C2=O)c(C)o1	0	1	-1	-3	.	.	-14	.
CSc1ccccc1OCc1cc(C(=O)N2CCc3sccc3C2)no1	-14	-7	-1	3	-11	i	-5	-4
Cc1ccc(S(=O)(=O)N(Cc2cc3ccc(C)cc3[nH]c2=O)c2ccccc2)cc1	-19	-13	-5	3	3	i	-1	-8
CCC(C)(C)NC(=O)C(c1ccccc1Cl)N(Cc1cccnc1)C(=O)CCC(=O)Nc1cc(C)on1 (stereo unspecified)	28	-1	2	-35	-1	i	-5	76	eIF4H FP inh retest=18;PABP polyA inh retest=-1
CCC1=NN(C(=O)C(=O)Nc2ccc(OC)cc2)C(O)(C(F)(F)F)C1 (stereo unspecified)	.	2	-1	-4	5	i	-5	-1
CC(C)CC(=O)Nc1ccc(C(=O)CN2CCN(c3ccc(O)cc3)CC2)cc1	0	-4	1	2	3	.	-1	1
CC1CN(/C(=N\S(=O)(=O)c2ccccc2)c2ccccc2)CC(C)O1 (stereo unspecified)	-17	-2	-2	-3	-17	i	.	-8
COc1ccc(C2CC(=O)C=C(NC3CCCC3)C2)cc1 (stereo unspecified)	.	-2	-6	6	4	i	10	-12
Cc1n[nH]c(=O)c2c(NC(=O)CSc3nn(-c4ccccc4)c(=S)s3)oc(C)c12	-10	3	1	7	.	i	.	.
CC(=O)CCc1ccc(OCC(O)CNCCOc2ccc(C)cc2)cc1 (stereo unspecified)	-7	0	-3	-9	10	i	-3	-2
CCOC(=O)C1=C(CC)Nc2ccccc2N=C1NC(=O)c1ccc(S(=O)(=O)N2CCOCC2)cc1	-34	-1	0	12	0	.	.	36
COc1ccccc1CNC(=O)C1CCCC1	-2	1	3	-11	17	i	-12	-6
CCOC(=O)N1CCC(NC(=O)c2ccc3c(=O)n4c(nc3c2)CCCC4)CC1	-56	2	12	-10	-5	i	0	8
COc1ccccc1OCCNC(=O)CN1C(=O)NC2(CCCC2)C1=O	-16	3	3	.	.	.	-22	.
NC(=O)C1CCN(C(=O)c2cc(Cl)c3c(c2)OCCO3)CC1	30	0	3	-5	.	.	-20	.
Cc1cc(C)nc(/N=C(\N)Nc2ccc(SC(F)F)cc2)n1	6	-4	-14	23	4	i	-12	-1
OCCN(CCO)CC(O)CN1c2ccccc2Sc2ccccc21 (stereo unspecified)	.	-1	0	-8	-10	i	-4	-7
CS(=O)(=O)c1cnc2c(S(=O)(=O)c3ccccc3)cnn2c1N	14	1	4	.	14	i	-15	-10
COc1ccc(NC(=O)c2sc3nc(N4CCCC4)c4c(c3c2N)CC(C)(C)OC4)c(OC)c1	8	-6	-1	36	14	i	-9	-9
COc1ccc(C(=O)Nc2nnc(C)s2)cc1S(=O)(=O)N1CCOCC1	-13	6	5	2	.	.	-8	.
O=C(O)CCN1C(=O)/C(=C/c2cn(-c3ccccc3)nc2-c2cccs2)SC1=S	4	5	-6	.	48	.	.	65	eIF4H FP inh retest=-10;PABP polyA inh retest=3
O=c1c(CN2CCN(c3ccccn3)CC2)coc2ccccc12	-11	0	3	0	60	i	.	11	eIF4H FP inh retest=-12;PABP polyA inh retest=0
COc1cccc(CN2CCC2(C)C(=O)Nc2cccc(Oc3ccccc3)c2)c1OC (stereo unspecified)	86*	-11	-18	.	.	.	-2	.
COc1cc(/C=C/C(=O)O)cc(S(=O)(=O)Nc2ccccc2C(=O)NCc2ccco2)c1OC	-9	0	3	-3	.	.	-6	.
O=C(COC(=O)/C=C/c1ccc(Cl)cc1)NC1CC1	.	-1	-1	-2	.	.	-5	.
CCN1C(=S)SC(=O)C1=C1C=C(C)N(CCO)C(C)=C1	.	-27	3	-6	-5	i	9	-7
CCOC(=O)c1c(-c2cccs2)csc1NC(C)=O	.	6	-2	-2	-11	i	.	-3
CCOC(=O)c1csc(NC(=O)Nc2cccc(OC)c2)n1	1	.	.	.	-14	.	.	-12
CCC(=O)Nc1c2c(nn1-c1ccccc1C)CSC2	.	-2	1	.	-3	i	-12	-4
CCn1nc(C)c(/C=N/NC(=O)CSc2ccccn2)c1C	-6	2	-2	-6	-1	i	-11	7
CC(C)(C)n1nc2c(c1NC(=O)COc1ccc3ccccc3c1)CS(=O)(=O)C2	32	0	0	.	2	i	-2	-9
Cc1cc(C(=O)COC(=O)c2cccc(O)c2)c(C)n1C1CC1	-67	14	2	-5	.	.	-9	.
O=C(Cc1cccs1)Nc1ccc(F)cc1F	19	-4	-1	-8	-1	i	-20	-5
COc1ccc(CC(=O)Nc2nnc(C(C)(C)C)s2)cc1OC	19	3	-10	0	-6	.	.	-4
CCN1CCN(S(=O)(=O)c2cccc([N+](=O)[O-])c2)CC1	.	7	6	-5	-6	i	-14	-12
CCCn1nnc(NC(=O)/C=C/c2cc(Br)ccc2OC)n1	14	0	-2	-12	1	i	-18	9
CCOC(=O)C1CCCN(c2c(NCC3CCCN3CC)c(=O)c2=O)C1 (stereo unspecified)	3	.	.	9	0	i	6	2
Nc1nc(SCc2ccccc2)c2ncn(Cc3ccccc3)c2n1	17	3	-7	.	.	.	-5	.
CCOC(=O)C1=C(C)NC(=S)NC1c1ccc(-c2cccc(Cl)c2C)o1 (stereo unspecified)	.	-12	-20	8	-6	i	-9	-3
Cc1ccc(-c2nc3ccccc3s2)cc1NC(=S)NC(=O)/C=C/c1ccco1	.	-3	-4	-7	-3	i	-10	-4
O=C(N1CCOCC1)N1CCC(n2nnc3ccccc32)CC1	-18	-4	4	6	18	i	-19	8
Cc1ccc(NC(=O)c2ccc3c(c2)[nH]c(=O)n3C(C)C)cc1	-2	7	-1	.	8	i	.	0
O=C(COc1cccc(OC(F)F)c1)Nc1ccc(SC(F)F)cc1	.	3	3	.	11	i	-3	3
CCN1C(=O)C(NC(C)=O)c2cc(Br)ccc21 (stereo unspecified)	.	-1	-1	0	-6	i	2	-17
CCCN(CCC)C(=O)C1CCC(CNS(=O)(=O)c2cccc3nsnc23)CC1 (stereo unspecified)	2	3	-1	.	3	i	-3	-14
Cc1nn(CC(=O)NC(C)c2ccccc2)c(=O)c2ccccc12 (stereo unspecified)	-83	0	2	-17	-2	i	-10	8
COc1cc(N)ccc1C(=O)O	-56	3	7	-7	-4	i	-15	-8
COc1ccc(NC(=O)Nc2nnc(CC(=O)Nc3ccccc3)s2)cc1	21	4	1	1	-1	i	.	-3
C=CCOc1ccc2nc(NC(=O)OC)[nH]c2c1	-72	11	-5	51	-3	i	-18	-13
O=C(O)Cn1cc2c(n1)CCCCC2	.	0	1	-12	4	i	-18	-5

Screening results from PubChem BioAssay.
